Screening results as filed in PubChem BioAssay.
Mtb growth: Mycobacterium tuberculosis H37Rv growth inhibition, putative kinase inhibitor library, confirmatory dose response (AID 2842); M. tuberculosis H37Rv growth inhibition; higher % means a stronger effect; some inactives read as strong as hits; inhibition, % at 10 µg/mL; hits with a dose series show IC90 in µg/mL; 5.2% of 24,000 active;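 active = confirmed in a dose series; inconclusive = mostly over 85% at the one dose but not retested; inactive = below 85% or not confirmed; about a fifth of its hits are not listed in these tables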;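 note: bacteria incubated one week before Alamar blue readout; 0% = bacteria only wells and 100% = bacteria with high antibiotic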
* hit, by the source's call; ? = inconclusive. The list is partial, so the mix of outcomes need not match the whole.

smiles	Mtb growth
Cc1ccc(C)c(-c2nnc(NC(=O)c3cc(Cl)ccc3[N+](=O)[O-])o2)c1	0.68µg/mL*
COC(=O)c1c(NC(=O)c2ccc(Cl)cc2)sc2c1CC(C)(C)NC2(C)C	19%
COc1ccc(NC(=O)CSc2ccc3nnc(-c4ccc(Cl)cc4)n3n2)cc1	1%
COc1ccc(NS(=O)(=O)c2ccc3c(c2)C(=O)c2ccccc2C3=O)cc1	-2%
COc1cc(Br)cc2c1Oc1nc(-c3ccccc3)nc(SCC(N)=O)c1C2	-1%
COc1cc(/C=N/Nc2cn[nH]c(=O)n2)cc([N+](=O)[O-])c1O	-3%
CCNc1nc2c(c(=O)[nH]c(=O)n2C)n1CC(=O)c1ccccc1	-1%
Cn1c(=O)[nH]c(=O)c2c1nc(N1CCN(Cc3cccc(Cl)c3)CC1)n2Cc1ccc(F)cc1	-2%
Nc1nc(SCc2ccccc2)[nH]c(=O)c1NC(=O)c1ccco1	-1%
O=C(CSc1nc2c(c(=O)n1-c1ccc(F)cc1)SCC2)Nc1ccccc1	5%
Cc1csc2ncc(C(=O)Nc3ccc(F)c(Cl)c3)c(=O)n12	-1%
Cc1ccccc1-c1nnc(NC(=O)/C=C\c2ccc3c(c2)OCO3)s1	-1%
O=C(NCc1ccncc1)c1c(O)nc2sccn2c1=O	-5%
COc1ccc2c(c1)c(=O)c(C(=O)c1ccc(C)cc1)cn2Cc1cccc(C)c1	7µg/mL*
Cc1ccc(NC(=O)CSc2nnc(CCC(=O)O)c(=O)[nH]2)cc1C	-9%
Cc1c(C)n2c(SCC(=O)Nc3ccc(Br)cc3)nnc2[nH]c1=O	-6%
CC1CN(c2ccccc2)c2nc3c(c(=O)n(CC(=O)O)c(=O)n3C)n2C1 (stereo unspecified)	-17%
CC(=O)Nc1nnc(-c2ccc(Br)cc2)o1	54%
CCCn1c2c(c(=O)[nH]c1=O)C(c1cc(OC)ccc1OC)C1=C(COC1=O)N2 (stereo unspecified)	7%
CCOC(=O)c1sc(NC(=O)c2ccno2)c(C(=O)OCC)c1C	-1%
CCOc1ccccc1-c1nc(C(N)=O)c2[nH]c(=O)n(-c3ccc4c(c3)OCO4)c2n1	-11%
CC(=O)Nc1sc(-c2nc(-c3cccs3)c(NC(C)=O)s2)nc1-c1cccs1	6%
CC(=O)c1ccc(C(=O)Nc2sc(Cc3ccc4c(c3)OCO4)c(C)c2C(N)=O)cc1	2%
O=C(NCC(c1ccco1)N1CCN(c2ccccc2F)CC1)c1c(F)cccc1F (stereo unspecified)	-1%
COc1ccc(-n2nc3c(c2NC(=O)c2ccc(Br)cc2)CS(=O)C3)cc1 (stereo unspecified)	13%
Clc1ccc(Nc2ncnc3c2cnn3-c2ccc(Cl)c(Cl)c2)cc1	67%
Cc1cccc(N2C(=O)CC(Sc3ncccc3C(=O)O)C2=O)c1C (stereo unspecified)	-2%
N#Cc1ccccc1NS(=O)(=O)c1cc2c3c(c1)CCN3C(=O)CC2	-5%
O=C(Nc1nnc(C2=COCCO2)o1)c1ccc2c(c1)CCCC2	0.44µg/mL*
O=C(Cc1cc(=O)[nH]c(=O)[nH]1)N(CCO)Cc1ccccc1	-6%

As a working copy, part of the list above:
smiles	Mtb growth
Cc1c(C)n2c(SCC(=O)Nc3ccc(Br)cc3)nnc2[nH]c1=O	-6%
CC1CN(c2ccccc2)c2nc3c(c(=O)n(CC(=O)O)c(=O)n3C)n2C1 (stereo unspecified)	-17%
CC(=O)Nc1nnc(-c2ccc(Br)cc2)o1	54%
CCCn1c2c(c(=O)[nH]c1=O)C(c1cc(OC)ccc1OC)C1=C(COC1=O)N2 (stereo unspecified)	7%

(continued)
smiles	Mtb growth
O=C(Cc1cc(=O)[nH]c(=O)[nH]1)NCc1ccc2c(c1)OCO2	-9%
Cc1ccc(-c2nnc(NC(=O)c3ccc(S(=O)(=O)N4CCc5ccccc54)cc3)o2)c(C)c1	90%
COc1ccccc1-c1nnc(NC(=O)C2CC2)o1	78%
O=C(Oc1ccc2c(=O)c(Oc3ccccc3Cl)coc2c1)c1ccccc1	5%
Cc1cc(-c2ccc(NC(=O)c3ccc(Cl)s3)c(C)c2)ccc1NC(=O)c1ccc(Cl)s1	2%
CCOC(=O)c1ccc(-n2cc(O)c(C(=O)OCC)n2)cc1	20µg/mL*
COc1ccc2cc(CCNC(=O)c3cc4ccccc4o3)c(=O)[nH]c2c1	-1%
CCOC(=O)c1sc(NC(=O)C(C)(C)C)cc1C	0%
O=C(Nc1nc(-c2ccccc2)c(-c2ccccc2)s1)C1=COCCO1	4%
O=C(CSc1nc2ccccc2[nH]1)N/N=C/c1ccccc1	-8%
COc1ccc(-c2nc(SCC(=O)NCc3ccc(F)cc3)c3c(=O)n(C)c(=O)n(C)c3n2)cc1	-2%
COc1ccc(S(=O)(=O)N2CCC(C(=O)Nc3nnc(-c4ccc(C)c(C)c4)o3)CC2)cc1	11%
Cc1nc2ccccn2c1/C(O)=C1\C(=O)C(=O)N(CCCn2ccnc2)C1c1ccccc1 (stereo unspecified)	-6%
COc1ccc(NS(=O)(=O)c2ccc(CCN3C(=O)c4cccc5cccc(c45)C3=O)cc2)cc1	-17%
O=C1CC(Nc2ccc(N3CCOCC3)cc2)C(=O)N1c1ccc(Cl)cc1 (stereo unspecified)	-10%
CCOc1ccc(C(=O)NC2CC(=O)N(c3cccc(OC)c3)C2)cc1 (stereo unspecified)	16%
O=C(CC1CCS(=O)(=O)C1)NNC(=O)C1CCCCC1 (stereo unspecified)	7%
Brc1ccc(/C=N/Nc2nc(-c3ccccc3)c3cc(Br)ccc3n2)cc1	10%
COc1ccc(N2CC(NC(=O)NCc3ccc(Cl)cc3)CC2=O)cc1 (stereo unspecified)	21%
Cc1ccc2nc(NC(=O)CSc3nnc4ccc(-c5ccccc5)nn34)sc2c1	-5%
O=C(Nc1nc2c(s1)CCCC2)c1cccc(NS(=O)(=O)c2ccccc2)c1	-1%
COc1ccc(OC)c(/C=C2\Oc3cc(OCC(N)=O)ccc3C2=O)c1	-10%
COc1cc(/C=N/NC(=O)CNC(=O)c2ccccc2)cc(OC)c1OC	4%
CCn1c(SCC(=O)Nc2ccccc2C(F)(F)F)nc2c(c1=O)SC(C)C2 (stereo unspecified)	0%
NC(=O)c1c(NC(=O)Cc2cccc3ccccc23)sc2c1CCN(Cc1ccccc1)C2	18%
COc1cccc(-n2c(SCC(=O)Nc3cc(C)cc(C)c3)nc3c([nH]c4ccccc43)c2=O)c1	0%
COc1cccc(NC(=O)Cn2ccn(-c3ccc4c(c3)OCO4)c(=O)c2=O)c1	-12%
COc1cccc(C2C3=C(COC3=O)Nc3c2c(=O)[nH]c(=O)n3CC(C)C)c1OC (stereo unspecified)	-2%
CCC(C)Sc1nc2c(c(=O)[nH]1)C(c1ccc(C)o1)C1=C(CC(C)(C)CC1=O)N2 (stereo unspecified)	11%
Nc1nc(SCC(=O)N2CCOCC2)[nH]c(=O)c1NC(=O)c1ccccc1F	1%

Going on with the list.
SMILES,Mtb growth
COc1cccc(C(=O)Nc2nnc(-c3ccc(F)cc3)o2)c1,?
COc1ccccc1OCC(=O)NC1CC(=O)N(c2ccc(C)c(C)c2)C1 (stereo unspecified),-1%
CCOC(=O)c1ccc(NC(=O)CSc2nccn2-c2ccc(F)cc2)cc1,-10%
COc1ccc(-c2nc(C(N)=O)c3[nH]c(=O)n(-c4ccc5c(c4)OCO5)c3n2)c(OC)c1,11%
COc1ccc2c(c1OC)C(=O)OC2CC(=O)c1cc(O)cc(O)c1 (stereo unspecified),-4%
CCC(C(=O)N1CC(=O)Nc2ccc(Br)cc2C1c1ccccc1)c1ccccc1 (stereo unspecified),38%
CN1CCc2c(sc(NC(=O)c3cccc(Oc4ccccc4)c3)c2C(N)=O)C1,-13%
COc1ccc(-c2nc(C(N)=O)c3[nH]c(=O)n(-c4ccccc4F)c3n2)cc1OC,9%
O=C(CSc1nc2c(c(=O)n1-c1ccc(Cl)cc1)SCC2)Nc1ccc(F)cc1F,9%
O=C(CC(c1ccccc1)c1ccccc1)Nc1c(C(=O)Nc2ccc(F)cc2)oc2ccccc12,1%
CCOC(=O)c1nn(-c2ccc(OC)cc2)c(=O)c2c(NC(=O)c3ccccc3Br)scc12,1%
CCOC(=O)c1nn(-c2ccc(OC)cc2)c(=O)c2c(NC(=O)c3c(-c4ccccc4Cl)noc3C)scc12,-2%
Cc1cccc(-c2nnc(NC(=O)CSc3nc4ccccc4s3)s2)c1,4%
Cc1cccc(NC(=O)c2cnc3sccn3c2=O)c1,2%
CC(=O)Nc1nnc(-c2cc(C)ccc2C)o1,20µg/mL*
Cc1ccc(S(=O)(=O)Nc2ccccc2C(=O)Nc2nc(-c3ccc(I)cc3)cs2)cc1,7%
CCSc1nnc(NC(=O)CSc2nc(C)nc3c2c(=O)n(C)c(=O)n3C)s1,-6%
COc1ccc(C(=O)Nc2c(N)nc(SCc3c(F)cccc3Cl)[nH]c2=O)cc1OC,5%
COc1ccc(C2=CC(c3cc(OC)c(OC)c(OC)c3)n3ncnc3N2)cc1OC (stereo unspecified),-4%
Nc1nc(SCC(=O)Nc2cccc(C(F)(F)F)c2)[nH]c(=O)c1NC(=O)c1ccc(F)c(F)c1,-9%
Cc1ccc(-c2nnc(NC(=O)c3ccc(OC(C)C)cc3)o2)c(C)c1,92%
O=C(Nc1nc2c(s1)CCc1ccccc1-2)c1cccc2ccccc12,11%
COc1ccc(OC)c(NC(=O)c2sc3[nH]c(=O)c(C(=O)O)cc3c2N)c1,-2%
CN(C)c1nc2c(c(=O)[nH]c(=O)n2C)n1CC(O)COc1ccccc1 (stereo unspecified),-3%
Cc1ccc2cc(CCNC(=O)c3c(F)cccc3Cl)c(=O)[nH]c2c1,15%
CN(C)c1ccc(/C=C/c2nc3cc4c(cc3s2)OCO4)cc1,-2%
CC1CN(c2ncnc3c2cnn3-c2ccc(F)cc2)CC(C)O1 (stereo unspecified),16%
Cc1ccc(-c2nnc(NC(=O)c3ccccc3)o2)c(C)c1,8.8µg/mL*
CC(=O)c1cccc(NC(=O)CC2CCS(=O)(=O)C2)c1 (stereo unspecified),0%
O=C(Nc1c(C(=O)Nc2ccc(Cl)cc2)oc2ccccc12)c1ccco1,4%
O=C(Nc1c(C(=O)Nc2ccc3c(c2)OCCO3)oc2ccccc12)c1cccs1,0%
CC(=O)c1ccc(C(=O)Nc2sc3c(c2C#N)CC(C)(C)NC3(C)C)cc1,0%
CN(C(=O)c1ccccc1Cl)c1nnc(C23CC4CC(CC(C4)C2)C3)s1,40%
CCOC(=O)c1oc2ccccc2c1NC(=O)CC,14%
CCN1CCN(CC(=O)Nc2cccc(C)c2)C(=O)C1=O,-3%
O=C(NCCO)c1ccc(CSc2nc3sc4c(c3c(=O)[nH]2)CCC4)cc1,-20%
CCOc1ccc(CC(=O)OCn2nnc3ccccc3c2=O)cc1,1%
O=C(CCN1C(=O)/C(=C\c2ccco2)SC1=S)Nc1ncc(Cc2ccc(Cl)cc2)s1,-9%
COc1ccc2nc(N(CCCn3ccnc3)C(=O)/C=C/c3cccs3)sc2c1,13%
CCOC(=O)c1nn(-c2ccc(OC)cc2)c(=O)c2c(NC(=O)c3cc(Cl)ccc3[N+](=O)[O-])scc12,5%
Cc1ccc(C)c(-n2ccn(CC(=O)c3ccc(F)cc3)c(=O)c2=O)c1,-8%
COc1ccc(OC)c(NC(=O)c2oc3ccccc3c2NC(=O)Cc2ccc(Cl)cc2)c1,-7%
COc1ccc(Cn2cc3c(-c4ccc(Cl)cc4)nnc-3c3cc4c(cc32)OCCO4)cc1,17%
COc1ccc(OC)c(S(=O)(=O)Nc2cc3c4c(c2)C(C)C(=O)N4CCC3)c1 (stereo unspecified),-5%
COc1ccc(Cl)cc1C(=O)Nc1nnc(-c2cccc(C)c2)s1,5%
CCCc1cc(=O)[nH]c2nnc(SCC(=O)NC(C)C)n12,-1%
CCOC(=O)c1oc2ccccc2c1NC(=O)C(C)(C)Oc1ccc(Cl)cc1,2%
O=C(CSc1nc2c(c(=O)n1-c1ccc(F)cc1)SCC2)Nc1ccccc1F,13%

Reformatted as labelled records: entries from further up.
O=C(Oc1ccc2c(=O)c(Oc3ccccc3Cl)coc2c1)c1ccccc1
- Mtb growth: 5%
Cc1ccc(-c2nnc(NC(=O)c3ccc(OC(C)C)cc3)o2)c(C)c1
- Mtb growth: 92%
CCNc1nc2c(c(=O)[nH]c(=O)n2C)n1CC(=O)c1ccccc1
- Mtb growth: -1%
COc1ccc(NS(=O)(=O)c2ccc(CCN3C(=O)c4cccc5cccc(c45)C3=O)cc2)cc1
- Mtb growth: -17%

Additional records:
SMILES,Mtb growth
C=CCn1c(NC(C)CC)nc2c1c(=O)n(C)c(=O)n2C (stereo unspecified),0%
COc1ccccc1NC(=S)NCCc1cc2ccc(C)cc2[nH]c1=O,19%
FC(F)(F)c1cccc(CSc2ccc3nnc(-c4ccncc4)n3n2)c1,-3%
Nc1nc(SCC(=O)Nc2cccc3ccccc23)[nH]c(=O)c1NC(=O)c1ccc(Br)o1,-11%
CN(C)S(=O)(=O)c1ccc(C(=O)Nc2sccc2C(N)=O)cc1,4%
CCc1ccccc1N1C(=O)C(Cl)=C(NS(=O)(=O)c2ccc(N)cc2)C1=O,0%
COc1ccc(OC)c(-c2cc(-c3ccccc3OC)c(C#N)c(N)n2)c1,81%
Cc1ccc(NC(=O)c2ccc(S(=O)(=O)N3CCC(C)CC3)cc2)c(C(=O)c2ccccc2)c1,-7%
O=C(COc1ccc2c3c(c(=O)oc2c1)CCCC3)NC1CCCCC1,8%
COc1ccc2cc(CCNC(=O)C3CCCC3)c(=O)[nH]c2c1,-2%
